Source: PubChem
GALR2 agonist – activates the human galanin receptor 2 | GALR2-expressing cells, agonist activation read-out | activation, %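 (tested at 5 µM)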 | hit rate 0.48% among 140,000 | AID 803;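 active = above mean plus 3 SD of all compounds, about 5% in these data, not always enough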;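 also: 0% = vehicle buffer wells and 100% = reference agonist at full effect; tested in CHO reporter cells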
Target sequence (O43603 whole entry, looked up): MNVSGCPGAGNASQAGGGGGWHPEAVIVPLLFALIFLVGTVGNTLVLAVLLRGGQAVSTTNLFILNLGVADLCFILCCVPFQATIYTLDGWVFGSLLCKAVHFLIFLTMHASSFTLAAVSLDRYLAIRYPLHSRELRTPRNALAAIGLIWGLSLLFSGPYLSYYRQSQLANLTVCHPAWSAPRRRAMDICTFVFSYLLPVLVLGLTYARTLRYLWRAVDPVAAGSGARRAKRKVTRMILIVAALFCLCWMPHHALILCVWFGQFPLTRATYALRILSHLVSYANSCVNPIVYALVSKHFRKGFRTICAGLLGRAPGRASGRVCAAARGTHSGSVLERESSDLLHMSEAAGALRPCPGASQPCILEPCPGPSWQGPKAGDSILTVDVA
HSV replic up – increases HSV replication in cells. HSV replication augmentation in cells, fold increase. maximum fold increase. hit rate 0.005% among 220,000. AID 1956;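 active = peak rise of 1.5-fold or more in the series; tested in PC3 cells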;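 also: first round at 10 µM; read as green reporter fluorescence; hits show the peak of a series up to 25 µM; 1 = signal of infected wells without compound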
INS promoter inh – TRM-6 insulin promoter activity inhibition. AID 1273. TRM-6 cells (human fetal islet line), insulin promoter-eGFP reporter, imaging; reporter expression induced with tamoxifen. inhibition, % at 2 µM. hit rate 0.9% among 130,000;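 active = inhibition above the mean plus 3 SD, with well images judged a real hit on visual review, cut at about 60% in these data, passing the limit was not always enough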
PKD1 kinase inh – inhibitors of human PKD1 kinase; Q15139; PKD1 kinase fluorescence polarization assay; inhibition, %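 (about 10 µM by stock and volumes)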; hit rate 0.056% among 200,000; AID 797;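 active = inhibition of 50% or more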;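 also: controls were vehicle for no effect and a reference inhibitor for full effect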
RGS16-Gao HTS – RGS16-Galphao interaction regulator (human). O15492+P09471. bead-based flow cytometry RGS16-Galphao binding, fluorescence; actives lie on both sides. binding response (% of control), % at 10 µM. hit rate 0.38% among 220,000. AID 1441;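 active = below 25% or above 175%, edge rows of some plates excepted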;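 also: Galphao activated by GDP with aluminum fluoride before binding; 100% = wells without compound and 0% = beads without RGS; some results beyond the cut were filed as inactive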
Target sequence (O15492 whole entry, looked up): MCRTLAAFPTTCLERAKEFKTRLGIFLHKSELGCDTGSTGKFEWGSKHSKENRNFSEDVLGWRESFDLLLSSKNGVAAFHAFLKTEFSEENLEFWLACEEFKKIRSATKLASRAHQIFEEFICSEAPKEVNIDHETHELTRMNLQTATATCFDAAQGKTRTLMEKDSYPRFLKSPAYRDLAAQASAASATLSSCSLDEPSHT
Target sequence (P09471 whole entry, looked up): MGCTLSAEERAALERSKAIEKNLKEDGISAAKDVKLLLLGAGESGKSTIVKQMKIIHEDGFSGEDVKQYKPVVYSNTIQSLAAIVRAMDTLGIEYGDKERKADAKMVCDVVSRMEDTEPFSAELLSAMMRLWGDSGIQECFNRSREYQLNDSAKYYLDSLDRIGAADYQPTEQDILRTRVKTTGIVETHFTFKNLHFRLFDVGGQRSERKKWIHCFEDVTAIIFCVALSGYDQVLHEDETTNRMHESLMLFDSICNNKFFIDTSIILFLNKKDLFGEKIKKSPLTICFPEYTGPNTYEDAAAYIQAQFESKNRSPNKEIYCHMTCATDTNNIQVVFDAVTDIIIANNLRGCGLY
INS promoter inh cell count – recorded beside INS promoter inh, whose call it bears; normalized cell count, %; measured here: cell count, toxicity; reference of the scale not given here;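 cells exposed to compound for 48 h; stained nuclei by imaging scaled within each plate; lower means fewer cells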
HSV replic up primary fold – recorded beside HSV replic up, whose call it bears; fold increase; compound at 10 µM; measured here: primary screen fold increase 10 uM; tested in PC3 cells;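 GFP signal in the first replicate; 1 = infected wells without compound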
An asterisk follows results filed as active; i = inactive; . = not tested or not shown.

SMILES	GALR2 agonist	HSV replic up	HSV replic up primary fold	INS promoter inh	INS promoter inh cell count	PKD1 kinase inh	RGS16-Gao HTS
O=C(COC(=O)c1n[nH]c2ccccc12)Nc1ccc(Cl)cc1[N+](=O)[O-]	.	i	1.1	.	.	0	97
CC(C)CC(NC(N)=O)C(=O)Nc1ccc(Cl)c(Cl)c1 (centres undefined)	.	i	0.93	.	.	-4	102
Cc1c(NC(=O)CSCc2ccc(Br)cc2)c(=O)n(-c2ccccc2)n1C	.	i	0.96	.	.	-8	102
Cc1cccc(OCC(=O)OCC(=O)c2c(N)n(C)c(=O)n(C)c2=O)c1C	-0.1	i	1	-20	101	3	101
CC(=O)c1cccc(NC(=O)CCOc2ccccc2)c1	0.4	i	0.96	44	71	-9	92
O=C1NC2(CCCCCC2)N=C1c1ccc(Br)cc1	.	i	0.92	.	.	6	101
CCNc1cc(Cl)nc(SC)n1	5.1	.	.	46	55	-5	102
Cc1ccc(CNS(=O)(=O)c2c(C)n(C)c(=O)n(C)c2=O)cc1	.	i	0.99	.	.	.	104
CCOC(=O)C(=CNc1ccc(NC2=NCC(C)(C)S2)cc1)C(=O)OCC	.	i	1.1	.	.	.	118
COC(=O)COc1ccc(C2NC(=O)NC(c3ccccc3)=C2C(C)=O)cc1OC (centres undefined)	-2.6	i	0.98	-14	107	-10	101
Cn1cnnc1SCC(=O)NCc1cccc(C(F)(F)F)c1	-1.0	i	1	-6	144	1	86
COc1ccc(N/C=C2\CCOC2=O)cc1	-2.3	i	0.88	26	87	-18	96
COC(=O)c1cn(CCOc2ccccc2F)c2ccccc12	-1.9	i	0.79	4	132	5	102
O=C1CCC([N+](=O)[O-])C(c2cccc3ccccc23)N1 (centres undefined)	.	i	1	13	130	-3	102
COCC(C)NC(=O)CCSc1nc(-c2ccc(OC)cc2)cc(C(F)(F)F)n1 (centres undefined)	-3.3	i	0.69	56	81	-2	102
O=C1CCN(S(=O)(=O)c2ccc(Cl)cc2)CCN1	.	i	1	.	.	.	104
CSc1nc2c(c(=O)[nH]1)C(c1ccncc1)C(C(=O)OC(C)C)=C(C)N2 (centres undefined)	-2.6	i	0.92	13	153	28	98
CC1(C)CN(c2ccc(N3CC(C)(C)C3=O)cc2)C1=O	.	i	0.96	-41	143	0	100
O=C1OCc2cc(-n3cccc3)ccc21	.	i	1.1	-57	73	0	102
CC1=C(C(=O)N2CCCC(C(=O)c3cccc(C(F)(F)F)c3)C2)OCCO1 (centres undefined)	.	i	1.1	-14	105	-3	105

Structural class, the compounds so far containing a carbonyl joined to an NH by a bond outside any ring.
SMILES	GALR2 agonist	HSV replic up	HSV replic up primary fold	INS promoter inh	INS promoter inh cell count	PKD1 kinase inh	RGS16-Gao HTS
O=C(COC(=O)c1n[nH]c2ccccc12)Nc1ccc(Cl)cc1[N+](=O)[O-]	.	i	1.1	.	.	0	97
CC(C)CC(NC(N)=O)C(=O)Nc1ccc(Cl)c(Cl)c1 (centres undefined)	.	i	0.93	.	.	-4	102
Cc1c(NC(=O)CSCc2ccc(Br)cc2)c(=O)n(-c2ccccc2)n1C	.	i	0.96	.	.	-8	102
CC(=O)c1cccc(NC(=O)CCOc2ccccc2)c1	0.4	i	0.96	44	71	-9	92
Cn1cnnc1SCC(=O)NCc1cccc(C(F)(F)F)c1	-1.0	i	1	-6	144	1	86
COCC(C)NC(=O)CCSc1nc(-c2ccc(OC)cc2)cc(C(F)(F)F)n1 (centres undefined)	-3.3	i	0.69	56	81	-2	102

More structures:
SMILES	GALR2 agonist	HSV replic up	HSV replic up primary fold	INS promoter inh	INS promoter inh cell count	PKD1 kinase inh	RGS16-Gao HTS
CC(=O)c1nn(-c2ccccc2)cc1C(=O)c1ccc(Br)cc1	9.4*	i	0.9	14	75	-10	103
O=C(Cc1c(C(=O)O)[nH]c2ccccc12)Nc1ccc2c(c1)OCO2	-2.1	i	0.8	.	.	-2	106
Cc1cc2c(c(N)n1)c(=O)oc1ccccc12	1.2	i	0.93	.	.	7	96
Nc1nc(SCC(=O)NCCc2ccccc2)[nH]c(=O)c1-c1ccccc1	.	i	1	.	.	-9	98
O=C(c1ccc(NS(=O)(=O)c2ccccc2)cc1)N1CCCC1	-3.3	i	0.94	50	100	-2	106
COCCCNC(=O)c1ccc(N(C)S(=O)(=O)c2ccc(OC)cc2)cc1	0.5	i	1	9	98	-1	103
O=C(Nc1nc(NC(=O)c2ccco2)n(-c2ccccc2)n1)c1ccccc1	-3.4	i	0.86	20	96	-12	83
COC(=O)c1cc(C(=O)OC)cc(N2C(=O)CN=C2Nc2nc(C)cc(C)n2)c1	-2.1	i	1	-250	97	2	109
O=C1C2C3C=CC(CO)(O3)C2C(=O)N1c1ccc(-c2ccccc2)cc1 (centres undefined)	-0.7	i	0.65	.	.	2	.
Cc1ccc(Nc2nnc(SC3CCOC3=O)s2)c(C)c1 (centres undefined)	-0.1	i	1	25	132	13	59
CC(C)CCNc1cc(=O)n(C)c(=O)n1C	-0.6	i	1	0	110	2	100
Cc1cc2nc(-c3ccc(SCC(=O)Nc4nccs4)nc3)[nH]c2cc1C	-0.4	i	0.74	.	.	0	112
C=CCSc1nnc(NC(=O)c2ccc(S(=O)(=O)NCC3CCCO3)cc2)s1 (centres undefined)	-3.0	i	0.9	-34	63	0	100
O=C(CSc1nnc(Cc2ccccc2)o1)NCc1ccc2c(c1)OCO2	.	i	0.82	.	.	5	103
COC(=O)C1=C(C(=O)OC)SC(=C2C(=S)C(C)(C)N(C(=O)CC(C)C)c3ccccc32)S1	-2.9	i	0.82	-11	158	-9	107
COc1ccc(S(=O)(=O)N(CCC#N)Cc2ccco2)cc1OC	.	i	1	.	.	.	101
N#Cc1cccc(Cn2cc(C(F)(F)F)ccc2=O)c1	.	i	1.2	.	.	.	95
O=C(COC(=O)c1sc2ccccc2c1Cl)Nc1ncc(Cl)cc1Cl	-2.0	i	1.1	-39	49	4	50
C(=C\c1nc(N2CCCC2)c2ccccc2n1)/c1ccccc1	0.5	i	0.74	.	.	-5	101
COCCN1C(=O)C(O)=C(C(=O)c2ccco2)C1c1cccc(Oc2ccccc2)c1 (centres undefined)	-1.2	i	0.86	.	.	11	89

Entries of single compounds as entered above.
Cc1ccc(CNS(=O)(=O)c2c(C)n(C)c(=O)n(C)c2=O)cc1 is listed with GALR2 agonist: .; HSV replic up: i; HSV replic up primary fold: 0.99; INS promoter inh: .; INS promoter inh cell count: .; PKD1 kinase inh: .; RGS16-Gao HTS: 104
Cc1c(NC(=O)CSCc2ccc(Br)cc2)c(=O)n(-c2ccccc2)n1C is listed with GALR2 agonist: .; HSV replic up: i; HSV replic up primary fold: 0.96; INS promoter inh: .; INS promoter inh cell count: .; PKD1 kinase inh: -8; RGS16-Gao HTS: 102

New compounds follow:
SMILES	GALR2 agonist	HSV replic up	HSV replic up primary fold	INS promoter inh	INS promoter inh cell count	PKD1 kinase inh	RGS16-Gao HTS
O=C(Nc1cccc(NC(=O)C2C3CC4OC(=O)C2C4C3)c1)c1ccccc1 (centres undefined)	.	i	0.88	.	.	1	102
Cc1cccc(N2CCN(C(=O)Cc3ccc(-n4c(=O)[nH]c5ccsc5c4=O)cc3)CC2)c1C	0.2	i	0.87	36	102	-4	101
Cn1c(N)c(C(=O)CSc2nc(N)cc(N)n2)c(=O)n(C)c1=O	.	i	1.2	-64	80	-5	101
CCCc1cc2c(=O)c(-c3ccccn3)coc2cc1OC	-1.2	i	0.77	.	.	-6	101
O=C1c2cccnc2C(=O)N1CNc1ccc(Cl)cc1	.	i	0.95	.	.	-1	98
COc1ccc2cc(-c3cc(C(=O)OCC(=O)NC4CCS(=O)(=O)C4)c4ccccc4n3)ccc2c1 (centres undefined)	11*	i	0.84	-16	111	-6	98
Cc1c(C(c2ccc([N+](=O)[O-])cc2)c2c(C)n(C)n(-c3ccccc3)c2=O)c(=O)n(-c2ccccc2)n1C	-1.5	i	1	.	.	5	102
O=C(NC1CCCCCC1)C1CCCN(S(=O)(=O)c2cnc[nH]2)C1 (centres undefined)	-2.3	i	0.84	.	.	-10	82
C[C@@H]1CN(C2CCN(Cc3nc(CC4CC4)no3)CC2)C[C@H](C)O1	.	i	0.98	-43	74	-3	160
CCOC(=O)CC(NC(=O)c1ccco1)c1ccc(OC)cc1 (centres undefined)	-2.3	i	0.83	-30	129	0	99
CC(NC(=O)c1ccc(F)cc1)C(c1cccs1)N1CCN(C)CC1 (centres undefined)	-0.9	i	0.97	-47	192	-3	93
O=C(NCc1ccc2c(c1)OCO2)C1CCC(CNS(=O)(=O)c2ccccc2)CC1 (centres undefined)	-2.3	i	0.94	32	149	-5	100
Cc1ccc(C)c(C(=O)COC(=O)CCCC(=O)Nc2cc(C(F)(F)F)ccc2Cl)c1	-0.5	i	0.91	.	.	-3	42
Cc1sc(NC(=O)C2CCCO2)c(C(N)=O)c1C (centres undefined)	-1.1	i	0.96	38	92	6	63
Cc1cc(C)n2nc(SCC3COc4ccccc4O3)nc2n1 (centres undefined)	-0.1	i	1.1	.	.	4	97
N=c1sccn1CC(=O)Nc1cc(Cl)ccc1Oc1ccccc1	-1.8	i	0.56	-5	84	0	105
CCCn1c2c(c(O)c(C(=O)Nc3ccc(C)cn3)c1=O)CCCC2	-1.5	.	.	28	96	-8	.
COc1cc(/C=C/C(=O)OCC(=O)N2CCN(S(=O)(=O)c3ccc(C)cc3C)CC2)ccc1O	0.8	i	0.94	0	127	-18	105
Cc1oc(-c2ccccc2)nc1C(=O)O	.	i	1	.	.	-1	105
O=c1c2ccccc2nc(-c2ccccc2)n1Cc1ccccc1	0.9	i	1	-32	125	-1	97
O=S(=O)(NC1CCCCC1NCc1ccco1)c1ccccc1 (centres undefined)	-1.1	i	1.1	3	73	-8	107
CCC(=O)NC(c1ccccc1OC)c1ccc2cccnc2c1O (centres undefined)	-1.8	i	0.91	67	77	-7	104
CC1(C)COCN1S(=O)(=O)c1ccc(C(=O)Nc2nnc(-c3ccc(Cl)s3)o2)cc1	-0.4	.	.	.	.	-6	101
CCn1cc(Br)c(C(=O)Nc2ccc(OC)cc2)n1	-1.2	i	0.84	41	201	-3	88
CCC(=O)Nc1ccc(-c2ccc(NC(=O)CC)c(OC)c2)cc1OC	.	i	0.94	36	154	-5	100
CCc1nnc(NS(=O)(=O)c2ccc(N/C=C\C(=O)c3cccc4ccccc34)cc2)s1	-1.0	i	1	16	80	-7	106
O=C(COc1cccc2c1CCN(Cc1ccccc1F)C2=O)N1CCOCC1	.	i	0.93	.	.	-4	105
COc1ccc(N2C(=O)CC(Sc3nnnn3-c3ccc(F)cc3)C2=O)cc1 (centres undefined)	.	i	0.79	.	.	-4	100
O=c1cc(CO)oc(C(Nc2ccccn2)c2ccc(C(F)(F)F)cc2)c1O (centres undefined)	-0.6	i	1.1	-18	113	-7	102
OC1CCCN(c2ncnc3c2nnn3Cc2c(F)cccc2Cl)C1 (centres undefined)	.	i	0.91	.	.	-1	173
COc1cccc(C(=O)Nc2ccc(-c3nnc(-c4ccco4)o3)cc2)c1	0.5	i	0.88	.	.	-3	102
COCCCNC(=O)CN(C1CCCCC1)S(=O)(=O)c1ccc(C)cc1	-0.5	i	1.1	21	88	-2	102
CCOC(=O)C1CCN(Cc2cc(=O)n3c(-c4ccccc4)csc3n2)CC1	.	i	1	36	84	11	201
O=C(N1CCCCC1)C12CC3CC(CC(C3)C1)C2	-0.1	i	1.1	58	222	-1	107
Cn1nnnc1SCC(=O)N1CCc2ccccc2C1	-1.1	i	1	-14	137	-3	71
Cc1nnc(SCc2ccc(Cl)cc2Cl)[nH]c1=O	-3.2	i	1	.	.	2	107
Cc1ccc(-c2cc(C(=O)NCc3cccnc3)no2)cc1	-0.6	i	0.9	-32	126	-13	108
COc1ccc(C2C(C(=O)NCCN3CCOCC3)c3ccccc3C(=O)N2C2CCCCC2)cc1 (centres undefined)	-0.2	i	1	.	.	-10	103
Cc1cc(NC(=O)COC(=O)c2cc(S(=O)(=O)N3CCOCC3)ccc2N2CCCCC2)no1	5.2	i	0.96	-31	95	18	102
COc1ccccc1C(=O)OCCNC(=O)Cn1cnc2c1c(=O)n(C)c(=O)n2C	.	i	1.1	.	.	-7	102
COc1ccccc1NC(=S)N(Cc1ccccn1)Cc1ccccc1Cl	.	i	0.91	.	.	-7	72
CCOc1cc(-c2noc(-c3ccncc3)n2)cc(Br)c1OC	-0.1	i	0.71	30	98	-4	99
O=C(Nc1ccc(F)c(Cl)c1)C1CCN(S(=O)(=O)c2cccnc2)CC1	-1.0	i	1	.	.	-4	99
CCOC(=O)NC(=O)C(=CNNc1ncc(C(F)(F)F)cc1Cl)C(=O)NC(=O)OCC	.	i	0.99	.	.	-5	98
O=c1c2ccccc2cnn1Cc1n[nH]c(=S)n1-c1ccc(Cl)cc1	-2.0	i	0.96	27	141	4	96
O=c1c2ccccc2sn1-c1nccs1	.	i	0.99	39	55	-1	78
